# AID504770: growth inhibition of E. coli YBA685, primary screen, V. cholerae RctB inhibitors; E. coli YBA685 rctB-dependent plasmid, OD600 growth, 3 h; active compounds read low; z-score (no concentration beside the values); 130,000 tested, 0.27% active;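 active = z-score under -2 on both plates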;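 note: wells of about 30 µL received 100 nL stock; score is relative to mean and SD of the test wells; the first replicate is given; strong numbers were not always called active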
# CapD inh: Bacillus anthracis CapD inhibitors, primary screen, biochemical, fluorescence intensity; 140,000 tested, 0.23% active; z-score (test concentration not listed); CapD gamma-glutamyltranspeptidase (Bacillus anthracis Ames Ancestor); AID 492967, 2010; purified CapD enzyme, fluorescence intensity read-out; active compounds read low; some hits fall short of the stated cut;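 active = z-score under -4 in either of two replicates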;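 note: stock transfer was 100 nL into about 40 µL; score is relative to mean and spread of the plate; one replicate is shown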
# * marks the source's active call; other numbers are inactive results; . = not tested or not shown. Rows are unselected; 0.41% or so of the library scored in one or more.
canonical_smiles | CapD inh | AID504770
Cc1nc(N2CCOCC2)c2c(C)c(C(=O)NCCN(C)c3cccc(Cl)c3)sc2n1 | 0.065 | .
N#CSc1ccc2c(c1)CCCN2C(=O)Nc1ccccc1 | . | -0.7
C=CCNc1nc(C2(C)CC3(CC(C)OC3=O)C(=O)O2)cs1 (stereo not drawn) | -0.315 | .
Cc1cc(-c2ccccc2)nc2c1c(=O)[nH]c(=O)n2CC(C)C | . | 1.35
NC(=S)Nc1ccc(C(=O)O)cc1 | . | 0.15
O=C(CCNC(=O)c1ccc(Cl)cc1)NN1C(=O)NC2(CCCCC2)C1=O | . | 0.6
Cc1ccc(-c2nc(N3CCC4(CC3)OCCO4)c3ccccc3n2)cc1 | 0.705 | .
CN(C(=O)CSc1ccc2c(c1)OCCO2)C1CCS(=O)(=O)C1 (stereo not drawn) | . | -1.8
CSC1=NC(C)(C)CC12C=CC(=O)C(C)=C2 (stereo not drawn) | 0.275 | -0.65
CC1(C)CC(CC(=O)O)C(=O)O1 (stereo not drawn) | 4.56 | 2.3
COc1ccc(CNC(=O)COc2ncnc3c2cnn3-c2ccccc2)cc1 | . | -0.1
CCOC(=O)C1=C(C)N=c2s/c(=C\c3ccc(Br)o3)c(=O)n2C1c1ccc(OCC)c(OCC)c1 (stereo not drawn) | 0.095 | .
CC(C)(C)c1ccc(-c2[nH]ncc2-c2ccncn2)cc1 | -0.285 | .
CC(C)(C)c1ccc(C(=O)N2CCN(Cc3cc4cccc5c4n(c3=O)CCC5)CC2)cc1 | 1.81 | .
O=C1/C(=N\O)CC2(C/C1=N/O)OCCO2 | -0.135 | 0.65
O=C(NCCN1CCN(c2cccc(Cl)c2)CC1)c1[nH]nc2c1COc1ccccc1-2 | 0.615 | 0.15
CC(C)c1ccc(C(O)CN2CCN(S(=O)(=O)c3cccc(C(F)(F)F)c3)CC2)cc1 (stereo not drawn) | . | 0.05
COc1ccc(/C=C2\SC(=O)N(Cc3ccccc3Cl)C2=O)cc1O | 0.765 | 1.1
CC(C)(Oc1ccc(Cl)cc1)C(=O)Nc1ncn[nH]1 | -0.2 | -0.45
O=C(Nc1nc2ccccc2n1CCN1CCCC1)C1CCCCC1 | 0.435 | .
Nc1nonc1-n1cc(CN2CCCCC2)nn1 | 0.125 | -0.25
Cc1ccc(C)c(N=C(N)N=C(N)N)c1 | -0.095 | 0.25
CCOC(=O)c1cnn(CCOC(=O)C2CC2)c1NC(=O)C1CC1 | -0.37 | -0.45
O=C(O)COc1ccc2c(c1)CCCC2 | . | -0.8
CCc1nnc(NC(=O)/C=C/c2ccc(S(=O)(=O)N3CCCCCC3)cc2)s1 | . | -0.65
CC(O)c1c(O)ccc2ccc(=O)oc12 (stereo not drawn) | 124 | -1.3
O=C(NC1CCCC1)c1cc(-c2ccccc2)on1 | . | 0.55
Fc1ccc(-c2noc(-c3ccc4c(c3)CCO4)n2)cc1 | -0.385 | 0
CCC1(C)Cc2sc3c(=O)[nH]c(=S)[nH]c3c2CO1 (stereo not drawn) | -0.425 | -0.75
C=CCSc1nc(N)cc(=O)[nH]1 | -0.065 | -0.7

# In a second layout: entries from further up
# Values run as follows: CapD inh | AID504770
CC(C)(C)c1ccc(C(=O)N2CCN(Cc3cc4cccc5c4n(c3=O)CCC5)CC2)cc1
  1.81 | .
O=C1/C(=N\O)CC2(C/C1=N/O)OCCO2
  -0.135 | 0.65
O=C(NCCN1CCN(c2cccc(Cl)c2)CC1)c1[nH]nc2c1COc1ccccc1-2
  0.615 | 0.15
CC(C)c1ccc(C(O)CN2CCN(S(=O)(=O)c3cccc(C(F)(F)F)c3)CC2)cc1 (stereo not drawn)
  . | 0.05
COc1ccc(/C=C2\SC(=O)N(Cc3ccccc3Cl)C2=O)cc1O
  0.765 | 1.1
CC(C)(Oc1ccc(Cl)cc1)C(=O)Nc1ncn[nH]1
  -0.2 | -0.45
O=C(Nc1nc2ccccc2n1CCN1CCCC1)C1CCCCC1
  0.435 | .

# Following part
canonical_smiles | CapD inh | AID504770
CC(=O)Oc1cn(C(C)C)c2nc(C)n3c4ccccc4nc3c12 | 2.24 | -0.5
CSc1nc2c(c(=O)n1-c1ccccc1)SCC2 | -1.83 | 1.15
CC(=O)NCCC(=O)Nc1ccc2c(c1)-c1ccccc1C2 | . | 0.3
Cc1cc(C)c2c(-n3cccc3)nn(CCCC(=O)Nc3ccc(F)cc3C)c2n1 | 21.4 | 0.4
COc1ccc(-c2nnnn2-c2ccc(F)cc2F)cc1 | -0.015 | -0.95
COC(=O)c1ccc(NC(=O)CCCCl)cc1 | 0.415 | -0.75
CCOC(=O)CN1NC(CC)(c2ccccc2)NC1=S (stereo not drawn) | 0.06 | -0.75
COc1ccccc1NC(=O)CN(Cc1ccco1)C(=O)/C=C/c1ccc(C)o1 | . | 0.1
CN1N=C(C(C)(C)C)CC1=O | -0.065 | 1.55
CCOC(=O)C(C#N)=c1sc(=C(C#N)C(=O)OCC)s1 | -1.86 | 0.55
CC1CC(C)CN(S(=O)(=O)c2ccc3c(c2)oc(=O)n3CC(=O)Nc2ccccc2F)C1 (stereo not drawn) | -0.16 | -0.25
O=C1c2cccc(Oc3ccc(Cl)cc3)c2C(=O)N1CC1CCCO1 (stereo not drawn) | 0.15 | -0.85
COc1cc(=O)n(C)c2cc(N(C)C)ccc12 | 1.35 | -0.4
O=C(N/N=C/c1cccc(C(F)(F)F)c1F)c1cc2ccccc2cc1O | 0.725 | .
O=c1c2sccc2nc(SCCC(F)=C(F)F)n1-c1ccccc1 | -0.13 | .
COc1cccc(CNC23CC4CC(CC(C4)C2)C3)c1OCc1ccccc1F | 0.42 | -0.1
CC(C)NC(=O)N(Cc1cccnc1)Cc1ccc(Cl)cc1Cl | -0.225 | -1
Cc1nc(CSc2n[nH]c(=O)n2-c2ccccc2)cs1 | 0.43 | 0.35
CC(=O)Nc1ccc2ccccc2c1 | 0.54 | 0.4
NC(=O)C1(N2CCCCC2)CCN(C(=O)Nc2ccccc2)CC1 | -0.31 | -0.25
O=C(NN(c1ccccc1)c1ccccc1)C(O)c1ccccc1 (stereo not drawn) | -0.79 | .
Cc1ccccc1N/C(SCc1ccc(Cl)cc1)=C(/C#N)C(N)=O | 0.49 | .
COc1cc(CN2CCN(S(=O)(=O)c3cccs3)CC2)cc2c1OCO2 | -0.445 | .
Clc1ccc2ocnc2c1 | 0.565 | .
CCOC(=O)C1=C(CC)Nc2ccccc2N=C1NC(=O)c1cc(OC)cc(OC)c1 | . | -0.4
O=C1C2C3c4ccccc4C(c4ccccc43)C2C(=O)N1c1ccc([N+](=O)[O-])cc1 (stereo not drawn) | -0.485 | .
O=C(NC(c1cccc([N+](=O)[O-])c1)c1cc(Cl)c2cccnc2c1O)c1cccnc1 (stereo not drawn) | -0.095 | .
COC(=O)C(NC(=O)c1c(C)nn(C)c1Cl)c1ccccc1 (stereo not drawn) | -0.395 | 1.7
O=C(Cc1c[nH]c2ccccc12)N/N=C/c1cccc2c1OCO2 | 6.3 | .
COC(=O)c1sc(S(=O)(=O)Nc2ccc(F)cc2)cc1Cl | -1.04 | -1.05
COc1ccc(OCC2CNC(=O)O2)cc1 (stereo not drawn) | . | -0.5
Cc1c(C(=O)NCCN(C)c2ccccc2F)sc2ncnc(N3CCOCC3)c12 | -0.66 | .
CC(=O)C1=C(O)C(=O)N(c2ccc(F)cc2)C1c1ccc2c(c1)OCO2 (stereo not drawn) | -1.26 | .
O=C(CCn1c(=O)oc2ccccc21)N1CCCCCC1 | -1.2 | 0.55
O=S(=O)(c1ccccc1Br)N1CCN(c2ccc(F)cc2)CC1 | -0.21 | .
COC1(OC)C/C=C\CC(OC)(OC)C/C=C\C1 | -0.475 | .
O=C(CCn1c(=O)oc2ccccc21)NCCCN1CCN(c2ccc(F)cc2)CC1 | -0.075 | -0.8
CN(C)c1ccc(/C=C2\CCC(C3CCCC3)C2=O)cc1 (stereo not drawn) | 0.425 | -0.35
Cc1ccccc1-n1nc2c(c1NC(=O)c1ccc(S(=O)(=O)N3CCOCC3)cc1)CSC2 | -0.425 | .
Cc1nc(N2CCCCC2)c2c(C)c(C(=O)N3CCN(c4ccccn4)CC3)sc2n1 | -0.25 | .
Cc1c2cnn(-c3ccccc3)c(=O)c2c(C)n1CCCC(=O)NC(C)c1ccccc1 (stereo not drawn) | -0.445 | -0.9
CCOC(=O)c1oc2ccccc2c1CN(C)Cc1ccccc1F | . | -0.35
CC(=O)Nc1ccc(S(=O)(=O)N(C)C2CCCCC2)cc1 | 0.45 | 0.7
O=C(O)CC1C(=O)NCCN1CC1CCCCC1 (stereo not drawn) | -1.02 | -0.5
NS(=O)(=O)c1ccc(CNC(=O)NC23CC4CC(CC(C4)C2)C3)cc1 | -0.12 | 1.25
Nc1cc(-c2cccs2)nn1-c1ccc(I)cc1 | 0.575 | -0.25
COC(=O)C1=C(C(=O)OC)SC(=C2C(=S)C(C)(C)N(C(=O)c3cccc(C)c3)c3ccccc32)S1 | 0.52 | .
COC(=O)c1ccc(CN2C(=O)C(C)N(C(=O)C3CC3)c3ccccc32)cc1 (stereo not drawn) | -0.26 | .
Cc1ccoc1C(=O)NCc1occc1C(=O)O | . | -0.5
COc1ccc(CC2CCC(=O)CC2)cc1 | -0.115 | .
O=C(CCCSc1nnc(-c2ccccc2)o1)c1ccc(Br)cc1 | . | -2.25
CS(=O)(=O)NNc1nccc(-c2cccnc2)n1 | 0.525 | 0.1
O=C1CCCCC1Nc1ccccc1 (stereo not drawn) | 0.185 | 0.3
N#Cc1ccc(NC(=O)CON2C(=O)CCC2=O)cc1Cl | . | 0.25
CCOc1ccc(C2Oc3ccc(OC)cc3C3CC(c4ccc(OC)cc4)=NN32)cc1 (stereo not drawn) | 0.11 | .
Clc1cccc(-n2nnnc2C2(N3CCCCC3)CCCC2)c1 | -0.28 | .
COC(=O)Cc1[nH]n(-c2ccccc2)c(=O)c1C(C)=Nc1ccccc1 | . | -0.25
CCOC(=O)c1cc2c(nc1C)-c1ccccc1C2=Nc1ccc2c(c1)Cc1ccccc1-2 | -0.1 | .
O=C(NCCCn1ccnc1)/C(=C/c1ccc(Cl)cc1)NC(=O)c1ccccc1 | 0.31 | .
O=S(=O)(/C=C/c1ccccc1)N1CCN(Cc2nnc(-c3ccccc3)o2)CC1 | . | 1.05

# Single values from the list.
# CapD inh result of `Clc1cccc(-n2nnnc2C2(N3CCCCC3)CCCC2)c1` → -0.28
# CapD inh result of `Cc1c(C(=O)NCCN(C)c2ccccc2F)sc2ncnc(N3CCOCC3)c12` → -0.66

# Remaining list, next part
canonical_smiles | CapD inh | AID504770
COc1ccccc1NC(=O)NC1CC2CCCC(C1)N2C1CC1 (stereo not drawn) | . | -0.95
NC(=O)NC(=O)CSc1ccccc1 | . | -0.35
C[C@H](NCCc1ccc(O)cc1)[C@H](O)c1ccc(O)cc1 | 118 | .
CSC(=NCc1ccc(C)cc1)Nc1ccccc1 | -0.96 | 0.9
CC1CCCC(C)N1C(=O)COC(=O)COc1ccc(C#N)cc1 (stereo not drawn) | . | 0.05
Cc1cc(C(=O)COC(=O)c2cnccn2)c(C)n1-c1ccc2c(c1)OCO2 | . | 0.35
CCOc1ccc(CN(C)C(=O)CNC(C)c2ccccc2OC)cc1 (stereo not drawn) | . | 2.15
COc1cccc(NC(=S)Nc2ccc(O)cc2)c1 | -0.27 | .
CNc1c(NC(C)=O)c(=O)oc2ccccc12 | -0.33 | -1
C=CCc1ccccc1OCCOc1ccc(C=C2C(=O)NC(=S)NC2=O)cc1OC | -0.81 | .
O=C(Cn1cnc2ccccc2c1=O)OCCN(C1=NS(=O)(=O)c2ccccc21)c1ccccc1 | 0.735 | .
CCC(=O)N=c1sc2cc(C)ccc2n1C | 0.045 | -0.1
Cc1cccc(-n2nnnc2C2(N=Cc3ccc([N+](=O)[O-])cc3)CCCCC2)c1 | -0.25 | .
COc1cccc(CN2CCN(Cc3cccnc3)CC2)c1 | -0.205 | 0.75
Cc1ccc(C)n1-c1ccc(OC(F)F)cc1 | . | -0.3
COC(=O)c1ccc(/C=N/O)cc1 | . | -1.25
O=c1c2c(nc3n1CCS3)-c1ccccc1CC21CCCC1 | 4.37 | .
CN(C)C(=O)Oc1ccc2ccc(OC(=O)N(C)C)cc2c1 | . | -0.15
Cc1[nH]c(=O)[nH]c(=O)c1NC(=O)CSc1nc2c(C)cccc2cc1C#N | . | 1.3
CC(C)(C)C(=O)N1CCN(Cc2ccccc2)CC1 | -1.03 | 3.25
O=C(O)CN1C(=O)/C(=C\c2cc(Cl)cc(Br)c2O)SC1=S | -2.3 | .
CCCCN(C(=O)c1cccs1)C1CCS(=O)(=O)C1 (stereo not drawn) | . | -0.65
COc1ccc(-c2nnc3n2N=C(c2cc4ccccc4oc2=O)CS3)cc1 | -0.105 | .
Cc1cccc(NC(=O)CSc2nc3c(c(-c4ccco4)c2C#N)CCCC3)c1C | -0.505 | 0.3
CC1(C)CC(=O)C2=C(C1)c1c(ccc3ccccc13)NC2c1ccncc1 (stereo not drawn) | 101 | -0.05
CNNC(=S)NCCC1=CCCCC1 | 0.32 | -0.05
O=C(c1cc2ccccc2c(=O)o1)N1CCN(C(c2ccccc2)c2ccccc2)CC1 | 0.35 | -0.1
COc1ccccc1CNC(=O)OCc1ccc(C(C)(C)C)cc1 | -1.25 | .
O=S(=O)(NCC(c1ccccc1)N1CCNCC1)c1ccc(Cl)cc1 (stereo not drawn) | . | -0.6
O=C(NCc1nc2ccccc2c(=O)[nH]1)c1ccccc1 | -1.11 | 1.15
CC1CCCC(C)N1C(=O)C1CCCCC1C(=O)O (stereo not drawn) | 0.11 | -0.75
COc1ccc2c(c1)-c1c(ssc1=S)C(C)(C)N2C(=O)c1cccc([N+](=O)[O-])c1 | -0.095 | .
Cc1ccc(C)c(NC(=O)CSC2=C(C#N)C(c3cccs3)C3=C(CC(C)(C)CC3=O)N2)c1 (stereo not drawn) | 4.35 | .
CSC1=NC2(CCN(C(=O)OC(C)(C)C)CC2)N=C1c1ccccc1 | -0.14 | 0.5
